NS1 function inh = qHTS Assay for Inhibitors of Influenza NS1 Protein Function; S. cerevisiae slowed by influenza A NS1, growth recovery by OD600; Potency, µM (highest dose often 46.1 µM), for the others: at the top dose activity, positive = more growth; 270,000 compounds, 0.4% hits; AID 2326, 2010; active means well fitted rising curve with a large enough effect; inconclusive means small, poorly fitted or top-dose-only effect; inactive means no such curve, though single readings can be large or run the other way; also: nearly all actives have a fitted effect of over 50% in size
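In this qHTS, NS1 from influenza A is expressed in budding yeast, where it slows growth. Cells are switched from glucose to 2% galactose medium (pH 6.0, -URA), treated with compound, and growth recovery is read at OD600.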
RE007 growth inh = qHTS Assay for Inhibitors of the HIV-1 protein Vpr | 360,000 compounds, 0.21% hits | AID 651644, 2012 | S. pombe RE007 Vpr strain, BacTiter-Glo ATP luminescence, 24 h; control for the full effect not named in the record | Potency, µM (series often up to 92.2 µM), without a hit: top-dose activity change, negative = less growth; active = well fitted falling curve with a large enough effect; inconclusive = small, poorly fitted or top-dose-only effect; inactive = no such curve, though single readings can be large or run the other way;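 also: % is scaled to controls: 0 for no effect and ±100 for the full control effect; nearly all actives have a fitted effect of over 50% in size; the assay follows cell death caused by Vpr and the record does not say whether a fall means rescue or toxicity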
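Fission yeast RE007 carrying one integrated HIV-1 vpr copy, seeded at OD 0.01 in PMG+AL medium with 23 nL pinned compound. Grown 24 h at 30 degrees; viability read by BacTiter-Glo luminescence after 5 min.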
Marburg entry inh = qHTS for inhibitors of binding or entry into cells for Marburg Virus; Potency, µM (top dose mostly 37.8 µM), without a hit: at the highest dose activity change, negative = inhibition, hits mostly inhibitors; 300,000 compounds, 1.8% hits; Marburg virus pseudotyped entry inhibition, cell reporter; control for the full effect not named in the record; about a third of the inactives were read at about 46 µM; AID 540276, 2011; active = well fitted inhibition curve with a large enough effect; inconclusive = small, poorly fitted or top-dose-only effect, or effect the other way; inactive = flat fitted curve, though single readings scatter; tested in HEK293 cells; about a fifth of its hits are not listed in these tables; also: % is scaled to controls: 0 for no effect and ±100 for the full control effect; luciferase read-out
Cruzain Triton = qHTS Assay for Promiscuous and Specific Inhibitors of Cruzain (with detergent) | purified cruzain, Z-FR-AMC fluorescence, 0.01% Triton | AID 1478, 2009 | Potency, µM, without a hit: max response, negative = inhibition, most hits filed as inhibitors | Cruzipain (Trypanosoma cruzi), P25779 | 200,000 compounds, 0.43% hits;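 also: plate controls were neutral wells for no effect and buffer without enzyme for full effect; nearly all actives have a fitted effect of over 40% in size; top concentration of the series not given in the record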
Target sequence (P25779 123-467 limits assumed): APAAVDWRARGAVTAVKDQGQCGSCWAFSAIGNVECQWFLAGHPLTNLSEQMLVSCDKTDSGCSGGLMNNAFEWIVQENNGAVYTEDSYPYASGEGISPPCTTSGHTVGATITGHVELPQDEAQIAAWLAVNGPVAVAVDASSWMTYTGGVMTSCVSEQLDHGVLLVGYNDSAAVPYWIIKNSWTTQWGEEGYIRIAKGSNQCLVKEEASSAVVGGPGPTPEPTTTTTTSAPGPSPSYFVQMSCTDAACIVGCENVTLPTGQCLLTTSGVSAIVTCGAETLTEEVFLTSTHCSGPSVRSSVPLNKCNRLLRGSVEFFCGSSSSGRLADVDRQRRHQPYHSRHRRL
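Detergent-containing arm of a paired screen for aggregation-based inhibition: 0.01% Triton X-100 present. Cruzain at 1.5 nM cleaved 2 uM Z-FR-AMC at pH 5.5 with 5 mM DTT; AMC fluorescence gain over 60 s measured activity.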
SARS PLpro yeast = qHTS of Yeast-based Assay for SARS-CoV PLP; S. cerevisiae expressing SARS-CoV PLpro, growth rescue; control for the full effect not named in the record; Potency, µM (doses to about 32.9 µM), for the others: at the top dose activity, positive = growth rescue; 330,000 compounds, 0.19% hits; AID 485353, 2010; active means well fitted rising curve with a large enough effect; inconclusive means small, poorly fitted or top-dose-only effect; inactive means no such curve, though single readings can be large or run the other way; also: 0% is about no effect; nearly all actives have a fitted effect of over 55% in size; growth read by luminescence after 48 h
Cruzain noTriton = qHTS Assay for Promiscuous and Specific Inhibitors of Cruzain (without detergent); purified cruzain, Z-FR-AMC fluorescence, no detergent; 200,000 compounds, 2.3% hits; Potency, µM, for the others: max response, negative = inhibition, actives largely listed as inhibitors; Cruzipain (Trypanosoma cruzi), P25779;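 also: plate controls were enzyme without inhibitor for no effect and buffer without enzyme for full effect; nearly all actives have a fitted effect of over 40% in size; top concentration of the series not given in the record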
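Purified cruzain at 1.5 nM, pre-incubated 15 min with compound at room temperature in 100 mM sodium acetate pH 5.5, 5 mM DTT, 0.00005% Triton X-100. Reaction started with 2 uM Z-FR-AMC; AMC fluorescence increase over 60 s gives rate.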
Lassa entry inh = qHTS for Inhibitors of binding or entry into cells for Lassa Virus | Potency, µM (top dose mostly 37.9 µM), inactives show at the top dose activity change, negative = inhibition, actives largely listed as inhibitors | Lassa virus pseudotype entry inhibition, cell reporter; control for the full effect not named in the record | 300,000 compounds, 1.2% hits | AID 540256, 2011; active means well fitted inhibition curve with a large enough effect; inconclusive means small, poorly fitted or top-dose-only effect, or effect the other way; inactive means flat fitted curve, though single readings scatter; tested in HEK293 cells; also: % is scaled to controls: 0 for no effect and ±100 for the full control effect; nearly all actives have a fitted effect of over 50% in size; luciferase read-out
StopGo reporter = High Throughput Screening for Foot and Mouth Disease Virus Antivirals; 410,000 compounds, 1.2% hits; human cells with a luciferase reporter of 2A StopGo recoding; control for the full effect not named in the record; AID 1159524, 2015; Potency, µM (titrated, usually from 57.9 µM), for inactives: at the top dose signal change, negative = less light; active = well fitted falling curve with a large enough effect; inconclusive = small, poorly fitted or top-dose-only effect; inactive = no such curve, though single readings can be large or run the other way; tested in HEK293T cells; also: % is scaled to controls: 0 for no effect and ±100 for the full control effect; nearly all actives have a fitted effect of over 45% in size; luciferase light after 4 h
The depositor's hits bear a star; ? = inconclusive; . = not tested or not shown; [ ] = dose if it differs, or a comment. Unless noted, calls follow the shape of the dose curve; as a rule, active = well fitted curve in the direction sought with a large enough effect; inconclusive = small, poorly fitted or top-dose-only effect, or another doubt; inactive = no such curve, though single readings can be large; an effect the other way counts as inactive or inconclusive. Potency is read from the fitted curve at half-maximal effect.

SMILES	NS1 function inh	RE007 growth inh	Marburg entry inh	Cruzain Triton	SARS PLpro yeast	Cruzain noTriton	Lassa entry inh	StopGo reporter
CC1(C)CC2CC(C)(CN2c2ncnc3ccccc23)C1 (stereo not drawn)	-9%	-3%	?	-1.2%	0%	-11%	-30%	.
O=C(COC(=O)c1cc(S(=O)(=O)N2CCCCC2)ccc1Cl)NCc1ccco1	.	9%	-4%[46.1 µM]	.	-2%	.	-8%	6%
O=C(Nc1cccc(Cl)c1)c1cc(S(=O)(=O)NCCc2ccc(Cl)cc2)ccc1F	3%	22%	-24%	-4.9%	2%	5%	-24%	23%
CCOC(=O)C1C(=O)NC(N2CCN(c3ccccc3)CC2)=NC1c1ccccc1 (stereo not drawn)	-1%	-4%	6%	1.0%	0%	-6%	1%	-22%
c1cc(C2CCN(Cc3nc(-c4ccc5c(c4)OCO5)no3)CC2)ccn1	-2%	-11%	.	.	-1%	.	.	?
Cc1cccc(NS(=O)(=O)c2ccc(Cl)cc2)n1	?	0%	4%	.	4%	.	0%	104%[activator]
COc1cccc(/C=C(\C#N)C(=O)Nc2ccc(NC(C)=O)cc2)c1OC	.	.	.	-0.5%	.	-2%	?	8%
Cc1ccc2nc(-c3ccc(NS(=O)(=O)c4c(C)n(C)c(=O)n(C)c4=O)cc3)sc2c1	7.9µM*	-10%	.	.	1%	.	.	30%
COc1ccc(CNC(=O)CN2C(=O)C3CCCN3c3ncc(Cl)cc32)cc1 (stereo not drawn)	8%	12%	-6%	-3.1%	-5%	-26%	-18%	-8%
CC1CN(CCCOc2ccc([N+](=O)[O-])cc2)CC(C)O1 (stereo not drawn)	6%	.	14%	-7.1%	-13%	-7%	0%	-16%
O=C(OCCN1CCOCC1)c1ccccc1	15%	-6%	?	.	-6%	.	?	0%
COc1cc(NC(=O)CN2CCC(C)CC2)c(C)cc1[N+](=O)[O-]	5%	.	?	-1.7%	22%	1%	2%	16%
CCn1c(C)nnc1SCC(=O)Nc1ccc2c(c1)OCCO2	-1%	-16%	?	.	0%	.	2%	26%
C#CC[N+]1(CC#Cc2cccc3ccccc23)CCOCC1	0%	8%	.	.	1%	.	7%	-12%
CC(C)c1nnc(NC(=O)CCC(=O)Nc2ccccc2)s1	1%	5%	1%	.	0%	.	.	-12%
COc1ccc(Cl)cc1CN1CCN(c2nc(C)cc(C)c2C#N)CC1	-10%	-1%	-5%[46.1 µM]	1.0%	-2%	-8%	7%	?
Cc1cc(O)cc(C)c1NS(=O)(=O)c1ccc2ccccc2c1	-5%	10%	.	.	1%	.	.	-1%
Cc1cc2ccccn2c1C(C[N+](=O)[O-])c1c(F)cccc1Cl (stereo not drawn)	?	?	?	.	-22%	.	?	-10%
O=Cc1ccc(OCc2ccccn2)cc1	-26%	-10%	25%	1.0%	-12%	-2%	?	57%[activator]
COc1ccc(Br)c2c1-c1nc(NC(=O)c3ccccc3SC)sc1C2	.	.	7%[46.1 µM]	0.7%	.	?	-25%[46.1 µM]	-23%
CC(C)(CNC(=O)Cc1ccc(Cl)cc1Cl)N1CCCCC1	9%	-24%	?	.	-5%	.	-10%[46.1 µM]	16%
C=CCn1c(SCC(=O)Nc2ccc(F)cc2)nc2ccccc2c1=O	-6%	-4%	.	.	4%	.	.	45%[activator]
COC(=O)c1ccc(-n2nnc(-c3nc(-c4ccc5c(c4)OCO5)no3)c2C)cc1	.	.	.	1.4%	.	-1%	20%[46.1 µM]	-2%
COc1ccc(Nc2nc3c([nH]2)c(=O)[nH]c(=O)n3C)cc1	.	11%	-3%[46.1 µM]	.	-1%	.	19%[46.1 µM]	-8%
Cc1cc(C)cc(NC(=O)C2CCCN(c3nnc(-n4c(C)ccc4C)s3)C2)c1 (stereo not drawn)	.	.	-9%[46.1 µM]	-4.3%	.	-2%	4%[46.1 µM]	-17%
S=C(NCCN1CCOCC1)Nc1ccc(Nc2ccccc2)cc1	-1%	1%	-2%[46.1 µM]	.	0%	.	14%	?
Cc1nc(SCC(N)=O)c(C#N)c(C)c1C	-4%	3%	.	.	1%	.	.	-12%
CC(=O)c1cc(C#N)c(N2CC(C)OC(C)C2)nc1C (stereo not drawn)	.	4%	-4%[46.1 µM]	.	-1%	.	-9%	10%
Cc1ccc(NC(=O)C2CCN(C(=O)c3cccs3)CC2)cc1	-22%	0%	0%[46.1 µM]	.	-2%	.	25%	-30%
O=c1c2c(-c3ccccc3)csc2ncn1/N=C/c1c2ccccc2cc2ccccc12	-28%	8%	-25%	-4.6%	-15%	10µM*	13%	?

One compound at a time (already shown).
Shown for `COc1cc(NC(=O)CN2CCC(C)CC2)c(C)cc1[N+](=O)[O-]` → NS1 function inh: 5%; RE007 growth inh: .; Marburg entry inh: ?; Cruzain Triton: -1.7%; SARS PLpro yeast: 22%; Cruzain noTriton: 1%; Lassa entry inh: 2%; StopGo reporter: 16%
Shown for `COc1cccc(/C=C(\C#N)C(=O)Nc2ccc(NC(C)=O)cc2)c1OC` → NS1 function inh: .; RE007 growth inh: .; Marburg entry inh: .; Cruzain Triton: -0.5%; SARS PLpro yeast: .; Cruzain noTriton: -2%; Lassa entry inh: ?; StopGo reporter: 8%

Continued:
SMILES	NS1 function inh	RE007 growth inh	Marburg entry inh	Cruzain Triton	SARS PLpro yeast	Cruzain noTriton	Lassa entry inh	StopGo reporter
CC(C)CCNC(=O)CN1C(=O)NC(c2ccccc2)(c2ccccc2)C1=O	-9%	12%	-28%[46.1 µM]	.	4%	.	-22%	11%
CC(c1ccccc1)N1C(=O)/C(=C/c2ccncc2)SC1=S (stereo not drawn)	-76%	-3%	.	.	-3%	.	.	32µM*
Cc1cccc(NC(=O)CSC(N)=O)c1C	-37%	-21%	-19%	-5.5%	6%	-1%	-8%	-15%
CCCc1c(O)nc(SCc2ccccc2)[nH]c1=O	3%	0%	3%	-0.6%	0%	2%	12%	2%
CCCCn1c(O)c(C(CC)=NCc2ccc3c(c2)OCO3)c(=O)[nH]c1=O	-201%	5%	?	1.5%	-3%	7%	?	?
COc1ccc(CCNC(=S)NC(=O)c2cccc(Cl)c2)cc1OC	2%	9%	-6%[46.1 µM]	.	-3%	.	-1%[46.1 µM]	-17%
COc1ccc(OCC(=O)N(Cc2cccc(OC)c2)C2CCS(=O)(=O)C2)cc1 (stereo not drawn)	.	.	-7%[46.1 µM]	-2.8%	.	0%	15%[46.1 µM]	-2%
CC(=O)N1CCN=C1SCc1ccc(C)cc1	4%	-6%	.	5.1%	4%	-6%	.	-8%
COc1ccc(-n2ccnc2SCC(=O)Nc2ccc3c(c2)OCO3)cc1	.	.	.	-2.6%	.	-9%	23%[46.1 µM]	-22%
CCOC(=O)c1c(-c2ccccc2)csc1NC(=O)C(C)NCc1ccco1 (stereo not drawn)	13%	-17%	?	-9.3%	-46%	25%	?	?
CCOC(=O)C1CCN(CCC(=O)Nc2ccc(F)cc2)CC1	.	3%	-22%[46.1 µM]	.	-3%	.	-5%[46.1 µM]	-12%
CCOC(=O)c1ccc(N(C(=O)CNC(=O)c2ccco2)C(C(=O)NCC2CCCO2)c2ccc(OC)c(OC)c2)cc1 (stereo not drawn)	-1%	16%	-23%[46.1 µM]	.	8%	.	-3%	-15%
O=C(COC(=O)Cc1ccc(Br)cc1)NCC1CCCCC1	0%	22%	5%[46.1 µM]	.	-2%	.	25%[46.1 µM]	-14%
Cc1ccc2c(c1)N(C(=O)CCC(=O)N1CCOCC1)CCO2	5%	-11%	.	.	?	.	.	-19%
COc1cccc(-c2cc(C(=O)NN3CCOCC3)c3ccccc3n2)c1	16%	3%	2%	-1.6%	16%	1%	3%	-13%
CN(C)c1ccc(-c2nc3ccc(Cl)cn3c2Nc2ccc3c(c2)OCCO3)cc1	.	.	?	4.8%	.	20%	16%[46.1 µM]	-2%
CCOc1ccc(NC(=O)c2c(Nc3ccc(OC)cc3OC)sc(C(=O)c3ccc(Cl)cc3)c2N)cc1	.	.	.	0.5%	.	?	-5%[46.1 µM]	-9%
C=CCn1c(OCc2ccccc2)n[nH]c1=S	1%	-13%	-5%[46.1 µM]	.	1%	.	0%[46.1 µM]	-8%
CC(=O)c1cc(F)c(N2CCN(C(=O)COc3ccc(F)cc3)CC2)cc1C	1%	-3%	?	-3.9%	-17%	1%	-21%	?
CCOC(=O)c1cccc(NC(=O)c2cc3sccc3n2Cc2ccc(Cl)cc2)c1	.	.	3%[46.1 µM]	4.3%	.	9%	16%[46.1 µM]	-3%
O=C(O)CNS(=O)(=O)c1c(Cl)cccc1Cl	2%	6%	22%	.	1%	.	1%	13%
CCc1cccc(C)c1NS(=O)(=O)c1cc(-c2cc(C)no2)ccc1C	.	.	.	-2.1%	.	-11%	10%[46.1 µM]	-5%
Cc1ccc(NC(=O)CCc2nnc(SCC(=O)Nc3ccccc3C)n2C)cc1Cl	-6%	-8%	4%	-0.9%	0%	-4%	-4%	.
O=C(COc1cccc2cccnc12)Nc1nccs1	?	-2%	8%	4.7%	6%	-5%	?	23%
COC(=O)c1ccc(S(=O)(=O)NCc2ccccc2)n1C	-1%	-18%	-6%[46.1 µM]	.	0%	.	10%	46%[activator]
COc1ccc(C)cc1NC(=O)C(c1ccccc1)N1CCN(CC(=O)N2CCOCC2)CC1 (stereo not drawn)	.	0%	-14%	.	-4%	.	-20%	-16%
Cc1cc(C)c(C(=O)c2ccc(C(=O)N(C(C)C)C(C)C)cc2)c(C)c1	-46%	1%	-32%	-9.5%	-9%	7%	-19%	?
Cc1ccc(C)n1NC(=O)c1ccccc1	18%	10%	-3%	0.4%	-1%	6%	-1%	-4%

Screening data: PubChem BioAssay, National Center for Advancing Translational Sciences (NCATS)
